Screens (PubChem)
MLL AF4-AF9 inh – blocks AF4 peptide binding to human AF9; P42568; actives 0.47% (n = 350,000); inhibition, % at 10 µM; AlphaScreen, biotin-AF4 peptide binding to FLAG-AF9;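 active means every replicate reaching a set inhibition limit, whatever the replicate mean, cut at about 25% in these data; inconclusive means mean inhibition reaches that limit but some replicates miss it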;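 further: 0% = plate neutral control median and 100% = total signal loss; the record names both 10 and 1 µM as test concentration; the first replicate is given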
Target sequence (P42568 whole entry, looked up): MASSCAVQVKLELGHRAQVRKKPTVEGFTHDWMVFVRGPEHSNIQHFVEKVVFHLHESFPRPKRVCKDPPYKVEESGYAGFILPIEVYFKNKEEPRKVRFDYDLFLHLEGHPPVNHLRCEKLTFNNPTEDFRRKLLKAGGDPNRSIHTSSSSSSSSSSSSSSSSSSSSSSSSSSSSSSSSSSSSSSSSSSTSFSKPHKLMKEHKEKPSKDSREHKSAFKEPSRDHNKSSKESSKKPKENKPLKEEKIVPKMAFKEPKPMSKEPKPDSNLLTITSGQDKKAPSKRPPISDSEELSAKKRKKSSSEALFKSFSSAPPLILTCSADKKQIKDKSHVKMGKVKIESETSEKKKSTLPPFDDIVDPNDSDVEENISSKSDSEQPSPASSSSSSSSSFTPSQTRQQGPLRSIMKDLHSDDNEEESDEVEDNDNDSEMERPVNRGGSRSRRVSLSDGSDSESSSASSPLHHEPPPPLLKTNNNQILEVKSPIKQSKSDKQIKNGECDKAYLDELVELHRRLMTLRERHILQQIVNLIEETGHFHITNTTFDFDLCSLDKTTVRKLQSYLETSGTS
Beta cell apopt – beta cell apoptosis inhibition; AID 435005; protection from apoptosis, % (no concentration beside the values); actives 0.8% (n = 300,000); INS-1E cytokine-induced death, ATP luminescence, 48 h; percent of positive-control rescue, neutral wells zero;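 active means all replicates at 75% or more, or half of them and the mean; inconclusive means half reach 75% but not the mean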;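 further: 0% = cytokine-treated negative control wells and 100% = positive control rescue; higher means more ATP so stronger rescue from cytokine killing; wells of about 40 µL received 100 nL stock; the first replicate is given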
Bfl-1 A1 inh – inhibitors of the anti-apoptotic protein A1, read as caspase activation; actives 0.066% (n = 330,000); caspase activation, % (no concentration beside the values); MEF A1-2A-BIM cells, Caspase-Glo 3/7 luminescence, 3 h; percent of clofoctol response, vehicle zero; AID 2462;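 active means over half of replicate activation scores above 10%, or exactly half above 10 with the replicate mean above 10; inconclusive means replicate mean below 10 yet half the replicates above 10; inactive means over half of replicates below 10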;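 further: wells of about 30 µL received 50 nL stock; many hits fall short of the cut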
RanGTP-Imp inh – disruptors of Ran-importin-beta complex formation – biochemical, FRET, CFP-Ran, YFP-importin-beta, homogeneous, primary screen; cell-free CFP-Ran/YFP-importin-beta FRET ratio; inhibition, % (concentration not given with the values); actives 1.1% (n = 300,000);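 active means most replicates above 15%; inconclusive means exactly half above 15%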;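 further: 0% = DMSO wells and 100% = Ran loaded with GDP instead of GTP; wells of about 40 µL received 100 nL stock; the first replicate is given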
T cruzi repl – blocks replication of Trypanosoma cruzi. T. cruzi beta-gal in NIH3T3, luminescence, 90 h. inhibition, % (concentration not given with the values). actives 1.4% (n = 300,000);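 active means mean inhibition across valid replicates above about 55%, limit read from the data; inconclusive means mean below that limit but half or more replicates reach it; inactive means mean below it, under half of replicates reach it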;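 further: signal also drops with host cell toxicity which is not excluded here; 0% = plate median of DMSO wells and 100% = zero luminescence signal; higher percent means less beta-gal luminescence so fewer parasites; stock transfer was 50 nL into about 50 µL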
Calb FLC – C. albicans growth modulation with fluconazole; growth inhibition, % (no concentration beside the values); actives 0.57% (n = 300,000); AID 1979; C. albicans CaCi-2 (fluconazole-resistant clinical isolate) + fluconazole, Alamar Blue growth, 48 h;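 active means most replicates above 75%; inconclusive means exactly half above 75%; inactive means most below 75%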;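 further: all wells also contain fluconazole at 8 µg/ml as a sub-toxic cotreatment; 0% = median of DMSO wells and 100% = median of geldanamycin control wells; wells of about 8 µL received 7.5 nL stock; the first replicate is given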
LANA-H2B inh – blocks KSHV LANA binding to histone H2A/H2B | Q9QR71 | cell-free LANA-H2A/H2B peptide, fluorescence polarization | inhibition, % (concentration not given with the values) | actives 0.6% (n = 320,000) | AID 2629; in the data active means inhibition mostly above about 10%, no sharp cut-off; inactive means mostly below about 6.7%;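 further: stock transfer was 7.5 nL into about 10 µL; 0% = median of vehicle wells and 100% = median of positive control wells; one replicate is shown; the record names a cut of 25% in any replicate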
Vif TR-FRET – inhibitors of Vif binding to APOBEC3G peptide, primary screen, biochemical, TR-FRET, GST-Vif 1-94, biotin-A3G peptide, dose response retest (AID 1117319) | actives 0.57% (n = 260,000) | inhibition, %, or IC50 in µM where a hit was titrated | TR-FRET GST-Vif / biotin-A3G peptide binding; higher % means a stronger effect; test concentration not given here; strong numbers were not always called active;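 active means above the screen mean plus three standard deviations and confirmed in dose response; inconclusive means results disagree or hit not tested in dose response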;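 further: Vif residues 1-94 fused to GST binding biotinylated APOBEC3G peptide 110-148; 0% = full assay without inhibitor and 100% = GST in place of GST-Vif; retest series ran down from 100 µM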
Numbers without * were called inactive; ? = inconclusive; / = no result given.

SMILES	MLL AF4-AF9 inh	Beta cell apopt	Bfl-1 A1 inh	RanGTP-Imp inh	T cruzi repl	Calb FLC	LANA-H2B inh	Vif TR-FRET
Cc1ccccc1-c1nc(CS(=O)(=O)CC(=O)N2CCOCC2)c(C)o1	0.0	-2	-0.2	-1.0	-11	0	-5.8	/
COc1ccc(S(=O)(=O)N2CCCC2CNC(=O)C(=O)NCc2ccc(C)cc2)cc1 (stereo not drawn)	-6.4	1	-0.9	1.9	17	0	0.0	-6%
CCn1c(SCC(=O)NCCOC)nc2sc(C)c(C)c2c1=O	/	/	/	-3.4	2	2	/	1%
COc1ccc(-c2noc(N3CCC(C(=O)Nc4cccc(OC)c4)CC3)n2)cc1	9.2	-3	-0.5	3.8	5	-7	-1.8	/
O=C(Nc1cc(C(F)(F)F)ccc1Cl)c1cc(C2CC2)on1	/	4	-1.2	0.1	25	-33	3.8	20%
COc1ccc(C(=O)COC(=O)c2sc(C)nc2C)cc1Cl	3.5	5	0.2	/	/	/	2.8	/
COC(=O)c1ccccc1C(=O)N1CCCC(C(=O)c2cc(F)ccc2F)C1 (stereo not drawn)	2.4	-9	-0.2	-2.9	1	-10	-5.0	-4%
O=C(Nc1ccc(N2CCOCC2)cc1)c1ccc([N+](=O)[O-])o1	2.1	-34	-6.0	-2.2	6	-1	9.0	/
CCCC(=O)Nc1nnc(-c2cccc(OCC)c2)s1	/	0	-0.3	-4.1	7	-18	1.2	3%
O=C(Nc1ccc(N2CCN(C(=O)c3cccs3)CC2)cc1)c1ccccc1F	0.6	1	0.6	3.7	3	5	-0.1	/
CCO/C=C1\C(=O)N(c2ccc(OCC)cc2)C(=O)c2ccccc21	-3.3	-8	0.8	1.3	-7	-3	2.1	/
O=C(CCc1ccccc1)Nc1ncc2c(n1)CCCC2=O	/	-2	0.1	?	-4	-9	-3.9	8%
Clc1ccc(N2CCCCCC2)nn1	/	-18	-0.1	1.9	0	-11	3.5	-1%
CC(C)CNC(=O)c1c2c(nc3ccccc13)-c1ccccc1CC2	/	-4	-0.4	4.6	4	10	0.9	5%
Cc1cc(C)cc(NC(=O)c2ccc(S(=O)(=O)N(C)CC3CCCO3)cc2)c1 (stereo not drawn)	0.0	-9	0.0	/	5	/	0.0	0%
Fc1cccc(Oc2nc3ccccc3n3cccc23)c1	/	2	0.3	-0.3	5	12	-7.6	-19%
COc1ccc(NC(=O)CCNS(=O)(=O)c2cccc(C(C)=O)c2)cc1S(N)(=O)=O	1.6	-6	0.7	-0.9	-1	3	-4.7	/
Cc1c(Cl)cccc1NC(=S)N1CCN(c2ncccn2)CC1	-3.6	-2	0.4	-1.5	-25	-26	9.4	/
O=C(NCC1CCCO1)c1cccc(S(=O)(=O)NCc2ccccc2)c1 (stereo not drawn)	-35	1	0.7	-2.5	4	1	-3.5	4%
CN(C)S(=O)(=O)c1ccccc1C#N	-16	4	0.1	1.0	0	11	0.7	?
Cc1[nH]n(-c2ccccc2)c(=O)c1C=Nc1ccc(S(=O)(=O)N(C)C)cc1	/	-4	-1.8	-0.9	-12	-16	0.8	-1%
COc1ccc(-c2cc(C3CCN(CC(O)C(F)(F)F)CC3)[nH]n2)cc1 (stereo not drawn)	0.9	/	0.5	2.4	1	-12	-4.3	-7%
CN(C(=O)c1cccn(Cc2ccccc2)c1=O)c1ccccc1	-3.2	-2	0.6	5.1	-9	-1	-3.8	5%
Cn1c(N)c(C(=O)COC(=O)COc2cc(Cl)c(Cl)cc2Cl)c(=O)n(C)c1=O	-1.6	-1	1.5	/	/	/	0.4	-33%
c1ccc(C2=Nc3c(ccc4ccccc34)C(c3ccncc3)=NN2)cc1	34*	9	0.4	/	/	-12	-3.5	-1%
O=C(CSC1=NNC(c2ccccn2)S1)Nc1cccc(Cl)c1 (stereo not drawn)	-3.0	-5	0.4	-0.1	-20	-9	4.3	6%
O=C(NCc1ccccc1F)c1cc(=O)[nH]c2ccccc12	1.7	2	-0.1	7.8	-7	0	-1.0	/
Cc1ccc(C(=O)N2CCN(c3cccc(C)c3C)CC2)o1	0.9	-10	-0.2	/	-1	/	-3.9	-5%
CCCn1c(=O)c2ccccc2n2c(SCC(=O)Nc3cc(C)on3)nnc12	/	-2	2.0	-2.3	-19	7	10	/
Cc1cc(C)cc(NC(=O)CSc2nc(=O)n(CCCN3CCOCC3)c3c2CCCC3)c1	-3.7	5	0.2	0.8	19	5	-1.0	7%
COc1cc(NC(=S)N2CCc3ccccc3C2)cc(OC)c1	-1.5	0	-0.2	-2.2	-9	15	0.2	-4%
Cc1ccc(NC(=O)c2cc3ccccc3o2)cc1	-5.4	3	-1.7	2.7	-6	-7	1.6	/
CSc1ccccc1NC(=O)COc1ccccc1Cl	/	2	-0.4	0.9	-2	-1	1.1	?
Nc1sc2c(c1C(=O)NC1CC1)CCCC2	-2.0	-5	-0.5	/	/	/	1.5	/
O=C(Nc1ccc(Oc2ccc3ccccc3c2)cc1)c1ccco1	/	10	0.2	1.3	-14	11	-1.6	14%
Cc1nn(Cc2ccc(C(=O)N3CCCC3)o2)c(C)c1[N+](=O)[O-]	-0.1	/	/	-1.6	-7	6	/	/
O=C1C(=O)N(Cc2cccnc2)C(c2ccc(Br)cc2)/C1=C(\O)c1ccc2c(c1)OCCO2 (stereo not drawn)	-2.0	-3	-0.2	?	-9	12	3.4	-10%
COC1(OC)N=C(N)C2(C#N)C(c3ccc4c(c3)OCO4)C12C#N (stereo not drawn)	/	-7	0.3	-2.9	-5	-1	-2.6	5%
Cc1ccc2nc(SCc3nnc(-c4cccs4)o3)[nH]c2c1	/	-17	-0.5	-1.7	-4	9	-5.3	1%
CCN1CCN(CCCN(Cc2cccs2)C(=S)Nc2ccccc2C)CC1	1.0	-3	0.4	0.7	-5	-17	-5.0	-10%
CN1CCN(C(=O)/C(=C/c2ccccc2Cl)NC(=O)c2ccccc2)CC1	-4.1	-1	-0.6	7.0	-22	-11	-0.9	/
COc1ccc(CC(=S)NCCc2ccccc2)cc1	-3.6	-5	0.3	-0.6	-5	-13	1.9	/
CCN1C(=O)c2cccc3c(NC(=O)C4CCCCC4)ccc1c23	-2.7	-9	0.3	4.4	0	10	3.0	0%
CS(=O)(=O)N1CCC(C(=O)N2CCN(c3ccc(F)cc3)CC2)CC1	0.2	-4	0.2	1.1	-9	-19	-4.2	/
CC1CN(S(=O)(=O)c2cccc3nsnc23)CC(C)O1 (stereo not drawn)	/	-8	-0.2	4.0	-11	1	-7.6	1%
CCCCOc1ccc(NC(=O)c2cnc(C)cn2)cc1	/	7	-0.1	-4.5	-4	5	3.3	-4%
O=C(NCCCCc1ccccc1)C1CC(c2cccc(F)c2)=NO1 (stereo not drawn)	0.2	-12	0.1	-1.4	-11	-3	0.9	-6%
COc1cccc(CN(C)C(=O)c2ccccc2Sc2ccccc2C#N)c1OC	-0.8	0	-1.8	0.7	21	1	4.4	/
O=C(O)Cn1c(-c2ccccc2)nc2ccccc21	/	-2	0.6	4.1	-23	2	0.9	6%
CCC(C)(C)NC(=O)CN(C(=O)CCC(=O)Nc1ccccn1)c1ccc(F)c(Cl)c1	/	-4	-0.6	5.3	2	3	-0.6	-3%
O=Cc1ccc(-c2ccc(C(=O)O)cc2)o1	0.0	2	0.8	-3.3	-17	-6	-2.0	6%
Nc1ccc(C(=O)OCC(=O)Nc2ccc3c(c2)OCO3)cc1[N+](=O)[O-]	/	-3	0.4	5.2	-17	21	-6.3	/
CCc1nc2sc3ccccc3c(=O)c2c(=O)n1Cc1ccco1	/	-6	-1.5	0.3	5	1	-2.1	24%
O=S(=O)(N1CCCCC1)N1CCN(CC(O)COc2ccc3cc(Br)ccc3c2)CC1 (stereo not drawn)	/	12	0.8	1.3	55*	-7	-2.2	-22%
Cc1ccc(C(=O)Oc2cc(N)n(S(=O)(=O)c3ccc(C)cc3)n2)cc1	-2.6	2	0.4	0.3	6	0	3.3	-4%
CCOc1ccc(NC(=O)/C=C/c2ccc(OC)cc2)c([N+](=O)[O-])c1	/	0	0.4	-5.8	-1	1	3.8	12%
O=S(=O)(NCCC1=CCCCC1)c1ccc(OC(F)(F)F)cc1	-7.4	-1	0.3	-0.2	0	-16	0.8	-1%
COc1ccc(-n2nc(C(=O)NCC(=O)NCc3ccco3)c3ccccc3c2=O)c(OC)c1	/	0	-0.4	1.8	-4	2	-0.8	-1%
Cn1c(=O)c(C(=O)N2CCc3ccccc32)cc2cccnc21	4.9	-6	0.1	1.8	4	-6	-7.2	-1%
C=CCOc1c(CNc2cccc(C(=O)O)c2)cccc1OCC	/	-4	0.2	-4.5	-1	-2	-2.4	2%

The list goes on:
SMILES	MLL AF4-AF9 inh	Beta cell apopt	Bfl-1 A1 inh	RanGTP-Imp inh	T cruzi repl	Calb FLC	LANA-H2B inh	Vif TR-FRET
CSc1nc2ccccc2cc1/C=C(\C#N)c1ccccc1	/	20	1.3	-1.9	-24	0	-0.7	0%
COc1ccc(N2CCCn3c2nc2c3c(=O)n(CCN3CCOCC3)c(=O)n2C)cc1	/	-5	-0.7	0.3	-19	-10	-4.6	2%
O=C(NCc1ccc(F)cc1)C1CCN(S(=O)(=O)c2cccc3nonc23)CC1	-0.2	3	0.5	0.5	7	-7	-2.7	/
CCC(=O)c1ccc(OCC(O)CNCCc2ccc(Cl)cc2)cc1 (stereo not drawn)	-2.6	-6	-0.3	-0.2	49	-2	-0.8	0%
O=C1CC(N2CCC(Cc3ccccc3)CC2)C(=O)N1CCc1ccccc1 (stereo not drawn)	2.2	-4	0.1	-3.0	19	-6	3.9	1%
CC(C)(C)OC(=O)C[C@@H]1C/C=C\C[C@H](CC(=O)N(CCO)Cc2ccccc2)C(=O)N2CCC[C@H]2COC1=O	-8.0	5	-0.9	/	/	/	0.3	/
CC1=CSC2=NC(=O)/C(=C/c3cccc(OC(=O)c4ccco4)c3)C(=N)N12	/	-13	-0.5	4.1	-11	8	0.2	20%
CC(C)(C)NC(=O)C(c1cccs1)N(Cc1cccs1)C(=O)c1ccc(CN2CCOCC2)o1 (stereo not drawn)	2.1	-2	0.5	-0.3	14	3	-0.6	-9%
COc1cccc(C(=O)Nc2ccc(C(F)(F)F)n(C)c2=O)c1	0.6	14	-7.3	-0.4	-14	?	-3.8	/
CCOc1ccccc1N1CC(C(=O)N2CCOCC2)CC1=O (stereo not drawn)	1.0	3	0.3	-0.9	-10	-5	-7.8	/
O=C(COC(=O)CNC(=O)c1ccccc1F)Nc1cccc(S(=O)(=O)N2CCCCCC2)c1	0.2	-8	-0.5	3.9	8	-18	-0.8	-1%
Cc1ccc(C(=O)OCC(=O)NCc2ccco2)cc1C	1.2	-6	-0.9	/	/	/	0.7	?
C/C(=N/NC(=O)C1CCN(S(=O)(=O)c2ccc(C)cc2)CC1)c1cccc([N+](=O)[O-])c1	/	/	1.1	?	11	-2	-0.3	-2%
CCCCC(CC)CNC(=O)Cn1c(=O)[nH]c2ccsc2c1=O (stereo not drawn)	-1.5	-3	2.0	0.8	1	-2	2.4	6%
